TRPML1 inh: human mucolipin-1 channel inhibition | Q9GZU1 | TRPML1-inducible cells, Ca2+ dye fluorescence, FDSS; stronger effect = lower value; inhibition of EC80 agonist-evoked calcium signal | activity change, negative = inhibition, % (concentration not given with the values) | 0.02% of 390,000 active; in the data active means activity change below about -50%; inconclusive means about -30% to -50%; inactive means above about -30%;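 further: stimulus is agonist 54-4 at its EC80 concentration; on the % scale 0 is the no-effect control and ±100 the full control effect; compound concentration not given in the record; the text of the record puts the active cut at -80%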
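Tet-induced TRPML1-DL cells loaded with Ca8 no-wash calcium dye were read kinetically on FDSS. Compound addition was followed by EC80 agonist 54-4 (4 uM final); inhibition was read over 110 s.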
TRPML1 ag: agonists of human TRPML1 channel; TRPML1-expressing cells, Ca2+ dye fluorescence, FDSS; host cell line not named in the record; reference of the full effect not given here; activation, % (concentration not given with the values); 0.12% of 410,000 active; in the data active = activation above about 50%; inconclusive = about 30% to 50%; inactive = below about 30%; further: 0% is about no effect; the text of the record puts the active cut at 80%
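Tet-induced TRPML1-DL cells, 1,500 per well, cultured overnight, were loaded with a no-wash Ca2+ dye for 45–90 min. Calcium fluorescence was recorded on the FDSS for 110 s after compound addition, before the EC80 agonist (4 uM 54-4) was added.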
PINK1 expr mod: changes PINK1 expression | Potency, µM (titrated, usually from 76.6 µM), inactives show top-dose activation (PINK1 increase), usual class: activators | 0.2% of 410,000 active | PINK1 immunofluorescence, high-content cytometry, 24 h; active = well fitted activation curve with a large enough effect; inconclusive = small, poorly fitted or top-dose-only effect; inactive = flat fitted curve, though single readings scatter; cell line not stated here;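 further: potency means the concentration at half of the fitted maximal effect; % of control where 0% means no effect; nearly all actives have a fitted effect of over 65% in size; a mitochondrial uncoupler was the plate control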
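Cells are seeded, rested 12 hours, then given compound at five concentrations or DMSO for 24 hours. After fixation, blocking and antibody staining, PINK1 amount and mitochondrial localization are scored; CCCP serves as control.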
Sfp inh: blocks B. subtilis Sfp PPTase activity | Q9F4F7 | Biochemical Sfp PPTase activity, qHTS | Potency, µM, for inactives: max response, negative = inhibition, actives largely listed as inhibitors | 3.5% of 310,000 active | AID 1490; active means well fitted inhibition curve with a large enough effect; inconclusive means small, poorly fitted or top-dose-only effect, or another doubt; inactive means no such curve, though single readings can be large or run the other way;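 further: the enzyme is Sfp with the accession as filed and its product quenches rhodamine fluorescence; potency means the concentration at half of the fitted maximal effect; 0% = enzyme reaction without inhibitor and -100% = no enzyme wells; top concentration of the series not given in the record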
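After 15 min at room temperature with compound, 15 nM Sfp received 5 uM rhodamine-CoA plus 12.5 uM BHQ-2-ybbR (50 mM Hepes pH 7.6, 10 mM MgCl2). Rate came from the fluorescence difference over 30 min, ex 525/em 598 nm.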
ClpP mod: qHTS Assay for Activators of ClpP | AID 651965, 2013 | Potency, µM (top dose mostly 57.5 µM), for the others: at the highest dose activity change, negative = active | 1.9% of 340,000 active | purified B. subtilis ClpP, FRET peptide cleavage, 20 min; active = well fitted falling curve with a large enough effect; inconclusive = small, poorly fitted or top-dose-only effect; inactive = no such curve, though single readings can be large or run the other way; further: potency means the concentration at half of the fitted maximal effect; the source files actives as falling curves though it sought activators and does not explain the sign; nearly all actives have a fitted effect of over 65% in size; many hits overshoot -100%
Target sequence (P80244 whole entry, looked up): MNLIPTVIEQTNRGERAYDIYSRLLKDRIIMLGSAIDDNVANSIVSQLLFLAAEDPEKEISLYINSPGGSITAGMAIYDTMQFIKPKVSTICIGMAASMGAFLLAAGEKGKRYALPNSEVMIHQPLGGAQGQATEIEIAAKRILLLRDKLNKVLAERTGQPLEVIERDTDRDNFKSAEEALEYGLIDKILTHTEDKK
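ClpP 10 microg/mL final, pH 8 Tris/KCl buffer with BSA, glycerol, Tween-20; compound pinned in; FRET-FV substrate; RT 20 min; Ex320/Em430; ΔFRET vs ADEP 5.8 microM, DMSO, no enzyme.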
TRPV1 potentiator: enhances activation of the human vanilloid receptor TRPV1; 0.02% of 320,000 active; potentiation, % at 8.33 µM; Q8NER1; TRPV1-expressing cells, Fluo-8 calcium influx, capsaicin EC20 potentiation; host cell line not named in the record; control for the full effect not named in the record; active means potentiation above 80%; inconclusive means 30% to 80%; inactive means below 30%; further: 0% is about no effect
Target sequence (Q8NER1 whole entry, looked up): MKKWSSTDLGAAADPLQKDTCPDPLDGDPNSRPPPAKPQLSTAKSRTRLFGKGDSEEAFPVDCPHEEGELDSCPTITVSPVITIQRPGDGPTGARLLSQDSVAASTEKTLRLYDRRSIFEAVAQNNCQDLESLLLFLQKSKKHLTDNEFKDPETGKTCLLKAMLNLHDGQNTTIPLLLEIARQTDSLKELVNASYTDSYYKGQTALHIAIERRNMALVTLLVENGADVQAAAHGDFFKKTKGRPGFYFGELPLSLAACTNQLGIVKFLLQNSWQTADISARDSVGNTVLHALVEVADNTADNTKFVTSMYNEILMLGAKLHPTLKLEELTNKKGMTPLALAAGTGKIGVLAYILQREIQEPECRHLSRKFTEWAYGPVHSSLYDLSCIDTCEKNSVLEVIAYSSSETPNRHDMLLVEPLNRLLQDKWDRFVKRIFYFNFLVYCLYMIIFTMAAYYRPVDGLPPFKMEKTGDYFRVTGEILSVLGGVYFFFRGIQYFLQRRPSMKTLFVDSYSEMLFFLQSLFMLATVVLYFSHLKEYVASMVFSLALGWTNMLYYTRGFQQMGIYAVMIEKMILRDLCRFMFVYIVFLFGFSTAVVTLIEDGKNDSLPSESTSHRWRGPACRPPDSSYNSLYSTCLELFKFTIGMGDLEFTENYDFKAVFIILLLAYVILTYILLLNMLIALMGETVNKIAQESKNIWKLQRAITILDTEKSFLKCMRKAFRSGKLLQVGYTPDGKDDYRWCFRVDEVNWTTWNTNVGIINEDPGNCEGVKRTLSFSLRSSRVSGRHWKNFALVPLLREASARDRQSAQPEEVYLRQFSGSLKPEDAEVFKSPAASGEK
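TRPV1-expressing cells were cultured overnight at 35.5C and loaded with Fluo-8 calcium dye for 40 to 90 min at room temperature. After a 10 s baseline, compound was added and calcium influx was read kinetically for 3 min (ex 480/em 520 nm).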
Menin-MLL FL inh: menin-MLL binding inhibition, fluorescein peptide | Fluorescence polarization, fluorescein-MLL peptide displacement from menin | FP activity change, % at 61.4 µM | 290,000 tested, under 10 active | AID 1766; inconclusive = falling polarisation curve, or a change in total fluorescence; inactive = total fluorescence flat and polarisation flat or rising; no compound was filed as active; the % refers to the polarisation; negative = inhibition;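 further: % of control where 0% means no effect; inhibitors lower the polarisation; unlabelled MLL peptide was the positive control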
Starred values were filed as active, the others as inactive; [ ] = dose if it differs, or a comment.

Start of the listing, in advance (three entries):
How did CCOc1ccc(OCC)c(NC(=O)CC(C)n2nc(C)cc2C)c1 (centres undefined) do in these assays?
TRPML1 inh: -13; TRPML1 ag: 0.4; PINK1 expr mod: 4.6%; ClpP mod: 1.5%

What do the screens show for `S=C(c1nc2ccccc2[nH]1)N1CCOCC1`?
TRPML1 inh: -6; TRPML1 ag: -0.3; PINK1 expr mod: -1.9%; Sfp inh: 25µM*; ClpP mod: -1.3%; TRPV1 potentiator: inconclusive; Menin-MLL FL inh: -3.3

How did COc1cc(Cl)cc(/C=C/c2ccc3ccccc3n2)c1OC(C)=O do in these assays?
TRPML1 inh: 12; TRPML1 ag: 0.6; PINK1 expr mod: 2.5%; Sfp inh: -24%; ClpP mod: 25µM*; TRPV1 potentiator: -2; Menin-MLL FL inh: inconclusive

This part in full, previewed entries included:
How did CCOc1ccc(OCC)c(NC(=O)CC(C)n2nc(C)cc2C)c1 (centres undefined) do in these assays?
TRPML1 inh: -13; TRPML1 ag: 0.4; PINK1 expr mod: 4.6%; ClpP mod: 1.5%

What do the screens show for `S=C(c1nc2ccccc2[nH]1)N1CCOCC1`?
TRPML1 inh: -6; TRPML1 ag: -0.3; PINK1 expr mod: -1.9%; Sfp inh: 25µM*; ClpP mod: -1.3%; TRPV1 potentiator: inconclusive; Menin-MLL FL inh: -3.3

How did COc1cc(Cl)cc(/C=C/c2ccc3ccccc3n2)c1OC(C)=O do in these assays?
TRPML1 inh: 12; TRPML1 ag: 0.6; PINK1 expr mod: 2.5%; Sfp inh: -24%; ClpP mod: 25µM*; TRPV1 potentiator: -2; Menin-MLL FL inh: inconclusive

What do the screens show for `Cc1ccccc1-c1noc(CSc2nc(-c3ccc(F)cc3)cc(=O)[nH]2)n1`?
TRPML1 inh: -1; TRPML1 ag: 1.7; PINK1 expr mod: 1.0%; ClpP mod: -2.8%

How did O=C(O)C1CCC(C(=O)O)SS1 (centres undefined) do in these assays?
TRPML1 inh: 13; TRPML1 ag: -0.5; PINK1 expr mod: 0.8%

Results for CC(/C=C/c1ccc2c(c1)OCO2)=N\NC(=O)C(O)c1ccccc1 (centres undefined) ?
TRPML1 inh: -19; TRPML1 ag: -0.3; PINK1 expr mod: 0.7%; Sfp inh: 22%; ClpP mod: 0.8%; Menin-MLL FL inh: 0.8

How did CCc1c(N)nc(N)nc1Nc1ccc(C)c(C)c1 do in these assays?
TRPML1 inh: -9; TRPML1 ag: 0.5; PINK1 expr mod: 3.6%

Results for Cc1cc(C)c2c(CC(=O)NCCc3ccccc3)coc2c1 ?
TRPML1 inh: 14; TRPML1 ag: 1.7; PINK1 expr mod: 8.7%; Sfp inh: 21%; ClpP mod: -2.1%; TRPV1 potentiator: -11; Menin-MLL FL inh: -4.0

Results for CS(=O)(=O)N1CCc2cc(-c3csc(NC(=O)Cc4ccccc4)n3)ccc21 ?
TRPML1 inh: -16; TRPML1 ag: -0.3; PINK1 expr mod: -4.6%[38.3 µM]; Sfp inh: 12%; ClpP mod: 0.2%; TRPV1 potentiator: -12; Menin-MLL FL inh: 1.8

What do the screens show for `Nc1nn(-c2ccccc2)nc1C(=O)OCc1ccc(Cl)cc1`?
TRPML1 inh: -11; TRPML1 ag: 2.6; PINK1 expr mod: 1.8%; ClpP mod: 3.7%

What do the screens show for `CC(=O)Nc1cccc(NC(=O)CSc2ncc(C(=O)Nc3ccc(F)cc3)c(=O)n2C)c1`?
TRPML1 inh: 0; TRPML1 ag: 0.3; PINK1 expr mod: -1.1%; TRPV1 potentiator: 0

How did CSc1nc(O)cc(=O)n1-c1ccc(F)cc1 do in these assays?
TRPML1 inh: 22; TRPML1 ag: -0.2; PINK1 expr mod: 2.9%; Sfp inh: 2%; TRPV1 potentiator: 0; Menin-MLL FL inh: 2.7

Results for Cc1nnsc1Sc1ccccn1 ?
TRPML1 inh: 1; TRPML1 ag: -1.0; PINK1 expr mod: 1.6%; Sfp inh: 18%; TRPV1 potentiator: 20; Menin-MLL FL inh: -2.4

Results for COC(=O)c1nn(C)c(=O)[nH]c1=O ?
TRPML1 inh: 0; TRPML1 ag: 4.9; PINK1 expr mod: -2.6%

Results for CCSc1nnc(NC(=O)c2ccco2)s1 ?
TRPML1 inh: -3; TRPML1 ag: 0.7; PINK1 expr mod: 5.9%; Sfp inh: 5%; ClpP mod: -2.1%; TRPV1 potentiator: -2; Menin-MLL FL inh: -0.3

Results for CCc1ccc(NC(=O)c2cnn(-c3ccccc3)c2-n2cccc2)cc1 ?
TRPML1 inh: -3; TRPML1 ag: 19; PINK1 expr mod: 3.7%; ClpP mod: -2.6%

Results for O=C(Nc1cccc(C(F)(F)F)c1)N(Cc1ccc(Cl)cc1)CC(O)C(F)(F)F (centres undefined) ?
TRPML1 inh: -21; TRPML1 ag: 0.2; PINK1 expr mod: inconclusive; Sfp inh: 16%; ClpP mod: -0.6%; TRPV1 potentiator: -14; Menin-MLL FL inh: 6.6

Results for Cc1oc2c(cc(NS(=O)(=O)c3ccc(Br)cc3)c3ccccc32)c1C(=O)OCc1ccccc1 ?
TRPML1 inh: 12; TRPML1 ag: 0.0; PINK1 expr mod: 0.2%; ClpP mod: -4.4%

How did COc1ccccc1N1CCN(Cc2cc(OC)c3c(c2)OCO3)CC1 do in these assays?
TRPML1 inh: 12; TRPML1 ag: 0.5; PINK1 expr mod: 4.3%; Sfp inh: 1%; ClpP mod: 1.2%; TRPV1 potentiator: -8; Menin-MLL FL inh: -9.3

Results for Nc1ccc(-c2nc3ccc(N)cc3[nH]2)cc1 ?
TRPML1 inh: 9; TRPML1 ag: 0.9; PINK1 expr mod: -0.8%; Sfp inh: 2%; ClpP mod: 4.4%; TRPV1 potentiator: 3; Menin-MLL FL inh: 4.0

How did CCNc1ncnc2c1cnn2C1CCCO1 (centres undefined) do in these assays?
TRPML1 inh: 3; TRPML1 ag: 0.1; PINK1 expr mod: -1.1%

What do the screens show for `Cc1ccccc1NC(=O)NCCCN1CCCC1`?
TRPML1 inh: -6; TRPML1 ag: -0.6; PINK1 expr mod: 2.0%[38.3 µM]; Sfp inh: 4%; ClpP mod: 0.4%; TRPV1 potentiator: 5; Menin-MLL FL inh: 4.7

How did CC1CC(C)CN(C(=O)C2CC(=O)N(c3ccc4c(c3)OCCO4)C2)C1 (centres undefined) do in these assays?
TRPML1 inh: 9; TRPML1 ag: 0.0; PINK1 expr mod: 1.0%; ClpP mod: -0.1%; TRPV1 potentiator: -2

How did Cn1c(C=O)c(C#Cc2ccccc2)c2ccccc21 do in these assays?
TRPML1 inh: 69; TRPML1 ag: 1.3; PINK1 expr mod: inconclusive; ClpP mod: -27%; TRPV1 potentiator: 14

Results for CCN(CC)C(=O)CSc1nc(-c2ccccc2)ccc1C#N ?
TRPML1 inh: -18; TRPML1 ag: 3.1; PINK1 expr mod: -0.5%; Sfp inh: 11%; ClpP mod: -3.7%; TRPV1 potentiator: 6; Menin-MLL FL inh: -2.9

How did CCCC1=Nc2cc(C(=O)NCCCN3CCN(C)CC3)ccc2Sc2ccccc21 do in these assays?
TRPML1 inh: 2; TRPML1 ag: 0.3; PINK1 expr mod: 9.9%; Sfp inh: 4%; ClpP mod: 1.5%; TRPV1 potentiator: 5; Menin-MLL FL inh: -4.4

Results for COc1ccccc1NS(=O)(=O)c1cc(NC(=O)c2cc3ccccc3oc2=O)ccc1C ?
TRPML1 inh: -11; TRPML1 ag: 0.0; PINK1 expr mod: 9.1%; Sfp inh: -10%; ClpP mod: -12%; TRPV1 potentiator: 18; Menin-MLL FL inh: 0.5

What do the screens show for `Cc1cc(C)n2cnnc2n1`?
TRPML1 inh: -6; TRPML1 ag: 0.2; PINK1 expr mod: 0.0%; Sfp inh: 15%; TRPV1 potentiator: 4; Menin-MLL FL inh: 3.3

How did Cc1noc(C)c1COC(=O)c1cc2c(C)nn(-c3ccc(F)cc3)c2s1 do in these assays?
TRPML1 inh: 9; TRPML1 ag: 0.4; PINK1 expr mod: 11%; Sfp inh: 6%; ClpP mod: -4.2%; TRPV1 potentiator: -9; Menin-MLL FL inh: 4.0

What do the screens show for `NC(c1csc(NC(=O)Nc2cccc(Cl)c2)n1)C1CCCCC1` (centres undefined)?
TRPML1 ag: 9.7; PINK1 expr mod: -1.4%; ClpP mod: -0.5%

How did O=C(NC(=S)Nc1ccc(NC(=O)c2ccccc2)cc1)c1ccc(F)cc1 do in these assays?
TRPML1 inh: 21; TRPML1 ag: 1.3; PINK1 expr mod: 6.5%; Sfp inh: 14%; TRPV1 potentiator: 3

Results for COc1cc(C(=O)COC(=O)Cc2cnc3sccn23)cc(OC)c1OC ?
TRPML1 inh: -9; TRPML1 ag: 0.1; PINK1 expr mod: 2.8%; Sfp inh: -5%; ClpP mod: -0.5%; TRPV1 potentiator: -2; Menin-MLL FL inh: -2.0

What do the screens show for `Cc1ccc(NS(=O)(=O)c2cc(NC(=O)c3cc(=O)[nH]c(=O)[nH]3)ccc2Cl)c(C)c1`?
PINK1 expr mod: 0.1%; Sfp inh: 13%; ClpP mod: -1.6%; TRPV1 potentiator: 1; Menin-MLL FL inh: 7.6

Results for CC(C)N=C(N)N=C(N)Nc1ccc(Cl)cc1 ?
TRPML1 inh: 0; TRPML1 ag: -0.4; PINK1 expr mod: 2.4%; ClpP mod: 1.0%; TRPV1 potentiator: -4

What do the screens show for `O=S1(=O)C=C(Oc2ccc(F)cc2)c2ccccc21`?
TRPML1 inh: 24; TRPML1 ag: -0.2; PINK1 expr mod: 0.2%; Sfp inh: 12%; ClpP mod: 0.7%; TRPV1 potentiator: -17; Menin-MLL FL inh: -1.7

What do the screens show for `O=C(NCc1ccc2c(c1)OCO2)c1cc(Cl)ccc1Cl`?
TRPML1 inh: -4; TRPML1 ag: 0.1; PINK1 expr mod: 1.9%; Sfp inh: 13%; ClpP mod: 3.3%; TRPV1 potentiator: -5; Menin-MLL FL inh: -7.6

How did CC1=C(C(=O)NCc2cccc(F)c2)C2(CCCCCC2)OC1=O do in these assays?
TRPML1 inh: 21; TRPML1 ag: 1.1; PINK1 expr mod: 2.5%; ClpP mod: -2.0%

Results for O=C(O)c1ccc(/C=N/N2CCN(C3c4ccccc4-c4ccccc43)CC2)cc1 ?
PINK1 expr mod: 0.1%; Sfp inh: inconclusive; ClpP mod: -1.1%; TRPV1 potentiator: 0; Menin-MLL FL inh: 2.0

Screens deposited in PubChem by National Center for Advancing Translational Sciences (NCATS).
